# 2A StopGo = lowers the luciferase signal of an FMDV 2A StopGo reporter | human cells with a luciferase reporter of 2A StopGo recoding; control for the full effect not named in the record | Potency, µM (top dose mostly 57.9 µM), without a hit: at the highest dose signal change, negative = less light | hit rate 1.2% among 410,000 | AID 1159524; active = well fitted falling curve with a large enough effect; inconclusive = small, poorly fitted or top-dose-only effect; inactive = no such curve, though single readings can be large or run the other way; tested in HEK293T cells; further: on the % scale 0 is the no-effect control and ±100 the full control effect; nearly all actives have a fitted effect of over 45% in size; luciferase light after 4 h
# Cruzain inh noDet = blocks cruzain activity in detergent-free assay; Potency, µM, inactives show max response, negative = inhibition, actives largely listed as inhibitors; P25779; purified cruzain, Z-FR-AMC fluorescence, no detergent; hit rate 2.3% among 200,000; active means well fitted curve in the direction sought with a large enough effect; inconclusive means small, poorly fitted or top-dose-only effect, or another doubt; inactive means no such curve, though single readings can be large; an effect the other way counts as inactive or inconclusive;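 further: plate controls were enzyme without inhibitor for no effect and buffer without enzyme for full effect; nearly all actives have a fitted effect of over 40% in size; top concentration of the series not given in the record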
# Target sequence (P25779 123-467 limits assumed): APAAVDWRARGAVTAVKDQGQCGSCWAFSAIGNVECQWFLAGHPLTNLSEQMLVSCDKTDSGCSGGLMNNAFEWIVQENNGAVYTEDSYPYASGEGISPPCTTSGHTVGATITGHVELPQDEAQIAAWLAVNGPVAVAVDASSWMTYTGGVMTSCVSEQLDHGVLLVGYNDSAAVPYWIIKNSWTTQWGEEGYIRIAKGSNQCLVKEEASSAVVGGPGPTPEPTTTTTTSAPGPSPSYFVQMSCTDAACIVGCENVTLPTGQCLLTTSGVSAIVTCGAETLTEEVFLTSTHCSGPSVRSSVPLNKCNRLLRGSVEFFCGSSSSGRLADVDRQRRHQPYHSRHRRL
#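 Detergent-free condition (0.00005% Triton X-100) in acetate buffer pH 5.5 with DTT. 1.5 nM enzyme and compound were pre-mixed 15 min, then 2 uM Z-FR-AMC substrate added; reaction progress from fluorescence change between first and third reads (60 s).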
# Marburg entry inh = Marburg virus entry inhibition | hit rate 1.8% among 300,000 | AID 540276 | Marburg virus pseudotyped entry inhibition, cell reporter; control for the full effect not named in the record; about a third of the inactives were read at about 46 µM | Potency, µM (highest dose often 37.8 µM), for the others: top-dose activity change, negative = inhibition, actives largely listed as inhibitors; active = well fitted inhibition curve with a large enough effect; inconclusive = small, poorly fitted or top-dose-only effect, or effect the other way; inactive = flat fitted curve, though single readings scatter; tested in HEK293 cells; about a fifth of its hits are not listed in these tables; further: on the % scale 0 is the no-effect control and ±100 the full control effect; luciferase read-out
# SARS PLpro yeast = SARS-CoV PLP inhibition in yeast; AID 485353; hit rate 0.19% among 330,000; S. cerevisiae expressing SARS-CoV PLpro, growth rescue; control for the full effect not named in the record; Potency, µM (highest dose often 32.9 µM), without a hit: at the top dose activity, positive = growth rescue; further: 0% is about no effect; nearly all actives have a fitted effect of over 55% in size; growth read by luminescence after 48 h
# Lassa entry inh = inhibitors of Lassa virus binding or cell entry. hit rate 1.2% among 300,000. AID 540256. Potency, µM (highest dose often 37.9 µM), inactives show at the highest dose activity change, negative = inhibition, usual class: inhibitors. Lassa virus pseudotype entry inhibition, cell reporter; control for the full effect not named in the record; active means well fitted inhibition curve with a large enough effect; inconclusive means small, poorly fitted or top-dose-only effect, or effect the other way; inactive means flat fitted curve, though single readings scatter; tested in HEK293 cells; further: on the % scale 0 is the no-effect control and ±100 the full control effect; nearly all actives have a fitted effect of over 50% in size; luciferase read-out
# RE007 growth inh = less growth of the S. pombe RE007 Vpr strain; hit rate 0.21% among 360,000; S. pombe RE007 Vpr strain, BacTiter-Glo ATP luminescence, 24 h; control for the full effect not named in the record; AID 651644; Potency, µM (series often up to 92.2 µM), without a hit: at the top dose activity change, negative = less growth; active = well fitted falling curve with a large enough effect; inconclusive = small, poorly fitted or top-dose-only effect; inactive = no such curve, though single readings can be large or run the other way;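 further: on the % scale 0 is the no-effect control and ±100 the full control effect; nearly all actives have a fitted effect of over 50% in size; the assay follows cell death caused by Vpr and the record does not say whether a fall means rescue or toxicity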
#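 Fission yeast RE007 carrying one integrated HIV-1 vpr copy, seeded at OD 0.01 in PMG+AL medium with 23 nL pinned compound. Grown 24 h at 30 degrees; viability read by BacTiter-Glo luminescence after 5 min.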
# Cruzain Triton = blocks cruzain activity in presence of Triton detergent | P25779 | purified cruzain, Z-FR-AMC fluorescence, 0.01% Triton | Potency, µM, without a hit: max response, negative = inhibition, usual class: inhibitors | hit rate 0.43% among 200,000; active means well fitted curve in the direction sought with a large enough effect; inconclusive means small, poorly fitted or top-dose-only effect, or another doubt; inactive means no such curve, though single readings can be large; an effect the other way counts as inactive or inconclusive;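 further: plate controls were neutral wells for no effect and buffer without enzyme for full effect; nearly all actives have a fitted effect of over 40% in size; top concentration of the series not given in the record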
#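 In this qHTS format, compounds are incubated with 1.5 nM cruzain for 15 min at room temperature before 2 uM Z-FR-AMC is added. Release of AMC is followed at 360/450 nm, and progress is taken as the 60 s fluorescence difference.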
# NS1 function inh = inhibitors of influenza NS1 protein function; Potency, µM (doses to about 46.1 µM), for inactives: at the top dose activity, positive = more growth; hit rate 0.4% among 270,000; S. cerevisiae slowed by influenza A NS1, growth recovery by OD600; AID 2326; further: actives are rising curves; nearly all actives have a fitted effect of over 50% in size
#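 A cell-based growth assay was used: compounds that relieve NS1-induced slow growth of budding yeast raise OD600. Assay medium was yeast nitrogen base with ammonium sulphate and -URA supplement, pH 6.0, with 2% galactose.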
# The depositor's hits bear a star; ? = inconclusive; nt = no result given; & = joins results of further samples; [ ] = remark or other dose. Unless noted, the call rests on the fitted dose curve; in most records, active means well fitted rising curve with a large enough effect; inconclusive means small, poorly fitted or top-dose-only effect; inactive means no such curve, though single readings can be large or run the other way. Potency means the concentration at half of the fitted maximal effect. Outcome played no part in choosing rows. About 4.7% of those tested had a hit in this group.
SMILES,2A StopGo,Cruzain inh noDet,Marburg entry inh,SARS PLpro yeast,Lassa entry inh,RE007 growth inh,Cruzain Triton,NS1 function inh
CCc1ccc(NC(=O)C(C)OC(=O)Cc2cc(OC)c(OC)c(OC)c2)cc1 (stereo unspecified),?,nt,?,1%,?,3%,nt,nt
Cc1ccc(OCC(=O)Nc2ccc3c(c2)nc(CCN2CCN(C)CC2)n3C)cc1,-5%,nt,nt,1%,nt,15%,nt,6%
Cc1cc(C(=O)CN(Cc2ccc(F)cc2)S(=O)(=O)c2ccc3c(c2)OCCO3)c(C)n1C,4%,-9%,-9%,-11%,?,8%[3.69 µM],-6.6%,11µM*
COc1ccc(NC(=O)C2CCN(C(=O)NCc3ccccc3)CC2)cc1,26%,-8%,24%,0%,3%,2%,1.3%,4%
O=C(NNC(=O)C12CC3CC(CC(Cl)(C3)C1)C2)c1ccncc1,6%,nt,?,-2%,10%,-14%,nt,nt
O=C(O)CC1(CC(=O)NCc2ccc(C(F)(F)F)cc2)CCCCC1,-5%,nt,10%[46.1 µM],1%,6%[46.1 µM],0%,nt,7%
CC(C)COC(=O)/C(C#N)=C/c1cn(Cc2ccccc2)c2ccccc12,-19%,1%,?,11%,29%,-5%,-5.4%,3%
CC1=C/C(=N\N=C2\NC(=O)C(CC(=O)Nc3ccccc3F)S2)CC(C)(C)C1 (stereo unspecified),-17%,nt,1%[46.1 µM],-3%,-26%,1%,nt,15%
O=C(CSc1nnc2c(Cl)cc(C(F)(F)F)cn12)NCc1ccc(F)cc1,-9%,-1%,?,-1%,6%,-14%,-7.5%,16%
COc1ccc(NC(=O)Nc2cccc([N+](=O)[O-])c2)cc1Cl,?,-5%,?,-20%,-15%,nt,-8.2%,-3%
COc1ccc(C(=O)/C=C/c2ccc(O)cc2)c(O)c1CC=C(C)C,-9%,-23%,-1%,-54%,?,?,-4.3%,-41%
CC1(C)Cc2ccccc2C2=NNC(=O)C2=N1,?,nt,?,-2%,?,10%,nt,-5%
COc1cc(CN2CC(C)OC(C)C2)cc(OC)c1 (stereo unspecified),-8%,nt,4%,nt,-39%[14.3 µM],4%,nt,6%
Cc1cc2c(c(SCC(=O)Nc3ccc(C)c(C)c3)n1)C(=O)OC2,8%,nt,3%[46.1 µM],-3%,-21%,-12%,nt,nt
Cc1cccc(C(=O)NNc2ncnc3c2cnn3-c2ccc(C)c(Cl)c2)c1,-24%,10%,nt,nt,?,nt,2.0%,nt
CC(=O)NCCc1c[nH]c2ccccc12,-7%&20%&4%&4%,4%&2%,7%&7%&7%&7%&12%&7%&7%&7%&7%,-1%,-10%,12%,-3.3%&1.7%,0%&-3%
CN(C)c1ccnc(N(Cc2ccccc2)Cc2ccccc2)c1C#N,nt,-2%,?,-49%,16%,0%,-5.9%,-26%
Cc1ccc(C(=O)NCCN2CCNC2=O)cc1,43%[activator],nt,27%[46.1 µM],0%,6%,26%,nt,-2%
COC(=O)C1=CN(Cc2ccc(OC)cc2)C=C(C(=O)OC)C1c1ccc(O)c(OC)c1,-16%,nt,6%[46.1 µM],-4%,?,-3%,nt,4%
CC(C)OC(=O)CSc1nnc(-c2ccco2)n1N,-10%,-4%,17%,1%,25%,3%,-0.6%,0%
COc1ccc(C(=O)CCc2ccccc2O)c(OC)c1,52%[activator],nt,1%[46.1 µM],0%,?,5%,nt,-55%
O=C(Nc1nnc(-c2ccc3c(c2)OCCO3)o1)c1ccc(Cc2ccccc2)cc1,-17%,13µM*,nt,6%,nt,10%,0.4%,-3%
Cc1onc(-c2c(Cl)cccc2Cl)c1C(=O)Nc1ccc2c(c1)OCO2,nt,?,-25%,1%,13%,6%,-27%,-43%
O=C(C1CCN(S(=O)(=O)c2cccc3nsnc23)CC1)N1CCN(c2ccccc2F)CC1,?,6%,6%,7%,-16%,-2%,-6.3%,1%
c1ccc(NCc2nnc3n2CCCCC3)cc1,nt,-8%,22%,1%,?,7%,2.4%,0%
CC1(C(=O)Oc2ccccc2)Cc2ccccc2C(=O)O1 (stereo unspecified),-6%,nt,nt,-3%,nt,3%,nt,-8%
Cc1ccc2oc(-c3ccc(C)c(NC(=O)/C=C/c4ccco4)c3)nc2c1,20%,-11%,?,nt,4%[46.1 µM],nt,-2.5%,nt
O=C(O)c1cccc(NS(=O)(=O)c2ccc(S(=O)(=O)N3CCOCC3)cc2)c1,-16%,nt,nt,-9%,nt,-8%,nt,14%
O=C(NCCc1ccccc1Cl)c1cc2ccccn2n1,34%[activator],-27%,nt,nt,?,nt,-4.6%,nt
O=C(NNC(=O)c1nn(-c2ccc(F)cc2)ccc1=O)c1ccc(Cl)cc1,-5%,nt,-18%,1%,0%,-14%,nt,2%
O=C1CCCC(O)=C1C1C2=C(CCCC2=O)Oc2ccccc21 (stereo unspecified),?,-6%,2%,-3%,-5%,-18%,3.0%,?
O=C(CSc1nnc(-c2ccccn2)n1Cc1ccco1)Nc1ccc2c(c1)OCO2,1%,-1%,0%,-2%,1%,9%,-2.8%,-6%
CCCCN(c1ccccc1)S(=O)(=O)N(C)C,-4%,nt,-14%[46.1 µM],1%,5%,-16%,nt,1%
CCc1ccccc1NC(=O)CCS(=O)(=O)c1ccc(OC)cc1,0%,nt,2%[46.1 µM],0%,1%[46.1 µM],-13%,nt,0%
CC(C)(CNC(=O)c1cc2c(s1)CCCC2)N1CCOCC1,-6%,nt,7%,2%,3%[46.1 µM],-6%,nt,nt
Cc1ccccc1CN1CCNC(=O)C1CC(=O)N(C)CCC1CCOCC1 (stereo unspecified),-14%,nt,nt,-4%,nt,4%,nt,-3%
CNC(=O)/C=C1\NC(C)(C)Cc2ccccc21,nt,11%,-3%,-27%,-12%,3%,0.2%,14%
CSc1ccc(C(=O)Nc2ccc(-c3nc4ccccc4s3)c(O)c2)cc1,20%,2%,nt,nt,-19%[46.1 µM],nt,1.2%,nt
O=C(CSc1nc2ccccc2nc1N1CCOCC1)N1CCN(c2ccccc2)CC1,?,nt,nt,2%,nt,4%,nt,-16%
CC(C)c1nnc(NC(=O)C2CCN(c3nc4ccccc4s3)CC2)s1,20%,?,?,3%,-11%,1%,-0.3%,-3%
CCCCN(C1CCS(=O)(=O)C1)S(=O)(=O)c1cc(C)ccc1C (stereo unspecified),-4%,nt,0%,1%,3%,-15%,nt,nt
CC(=O)Nc1c(O)n(C)c2ccccc12,0%,-3%,35%,3%,2%,-2%,2.5%,6%
CC(=O)N1CCN(C2=NC(=O)C(=C3CCCCC3)S2)CC1,32%[activator],-8%,?,-8%,21%,-5%,-3.2%,7%
CC1=C(C(=O)OC(C)C)C(c2c[nH]c3ccccc23)n2ncnc2N1 (stereo unspecified),0%,-2%,nt,-3%,nt,8%,-10%,14%
COC(=O)C1=CN(Cc2ccccc2)C=C(C(=O)OC)C1c1cc(F)ccc1F,-20%,nt,-36%,-3%,7.1µM*,-4%,nt,5%
O=S(=O)(Nc1cc(Sc2cccc3cccnc23)c(O)c2ccccc12)c1ccc(F)cc1,13µM*,?,6.5µM*,-6%,11µM*,?,3.7%,-18%
O=C(NCCCCc1ccccc1)C12CN(Cc3ccccc3)CC1C(c1cccc([N+](=O)[O-])c1)=NO2 (stereo unspecified),-1%,7%,7%,?,nt,14%,4.2%,?
COc1cc(OC)cc(C(=O)NC(=S)Nc2cccnc2)c1,-9%,-6%,11%,9%,3%,-8%,9.8%,2%
Cc1ccc(-n2nc(CC#N)c(C#N)c2N)cc1,-8%,-5%,?,4%,13%,24%,0.5%,1%
Cc1ccsc1/C=C1\SC(N2CCOCC2)=NC1=O,45%[activator],-7%,5%,-20%,?,-13%,-5.1%,-47%
Cn1cccc1C(=O)NCC(c1ccc(F)cc1)N1CCOCC1 (stereo unspecified),10%,nt,nt,0%,nt,-1%,nt,9%
CCOC(=O)c1cc(C#N)c(SCC(=O)c2cc(C#N)c(SC)nc2C)nc1C,nt,-23%,?,7%,-19%,10%,-7.0%,7%
O=C(COc1ccc([N+](=O)[O-])cc1)N(Cc1cccs1)C1CCS(=O)(=O)C1 (stereo unspecified),-11%,nt,nt,9%,nt,-1%,nt,-3%
COc1ccc(S(=O)(=O)N2CCCC(C(=O)N3CCN(C)CC3)C2)cc1Cl (stereo unspecified),-16%,nt,-10%,21%,10%,14%,nt,-11%
O=C(Cc1ccccc1)N/N=C/c1cc(Br)cc(Cl)c1O,-3%,nt,?,1%,?,-11%,nt,nt
CCOC(=O)c1ccc(N(C(=O)c2ccco2)C(C(=O)NC2CCCC2)c2ccncc2)cc1 (stereo unspecified),-1%,nt,0%[46.1 µM],5%,?,-2%,nt,-25%
Cc1cccn2c(=O)nc(SCC(=O)Nc3cccc4ccccc34)nc12,-22%,nt,-3%,2%,-9%,26%,nt,nt
COc1ccc2c(Cl)c(C(=O)NN3CCN(C)CC3)sc2c1,14%,nt,11%,1%,?,-11%,nt,1%
COc1ccc(N2CCN(C(=O)c3oc4ccccc4c3NC(=O)Cc3cccc(OC)c3)CC2)cc1,0%,nt,?,-8%,?,10%,nt,12%
Nc1nnnn1/N=C/c1cc(Cl)ccc1O,-1%,nt,nt,2%,nt,-1%,nt,-1%
# (more compounds)
SMILES,2A StopGo,Cruzain inh noDet,Marburg entry inh,SARS PLpro yeast,Lassa entry inh,RE007 growth inh,Cruzain Triton,NS1 function inh
COc1ccc(/C=C(\C#N)C(=O)OCC(=O)Nc2ccc(-c3nc4ccc(C)cc4s3)cc2)cc1,-15%,nt,?,0%,?,-3%,nt,0%
C#CCOC(=O)/C(=C/c1ccc(F)cc1)NC(C)=O,0%,-3%,18%,?,-4%,1%,6.1%,1%
NC(=O)COC(=O)[C@H](Cc1ccccc1)NS(=O)(=O)c1ccc2c(c1)OCCO2,6%,nt,22%[46.1 µM],6%,0%,0%,nt,nt
Cc1cc(CSc2ccccc2C(=O)O)on1,0%,nt,10%[46.1 µM],1%,13%[46.1 µM],-11%,nt,5%
O=C(Nc1cccc2ncccc12)c1ccccc1[N+](=O)[O-],-3%,nt,7%[46.1 µM],-8%,-7%[46.1 µM],7%,nt,15%
CCS(=O)(=O)CCSc1nc(C)cc(C)c1C#N,nt,-3%,-28%,3%,?,-16%,2.2%,-16%

# Assay outcomes from PubChem BioAssay.
